Screens deposited in PubChem by ICCB-Longwood Screening Facility, Harvard Medical School.
VACV E9 pol inh – vaccinia E9 polymerase processive synthesis inhibitors, primary screen, biochemical, absorbance. normalized absorbance, % (no concentration beside the values). AID 493162, 2011. 46,000 tested, 0.94% active. in vitro processive DNA synthesis, absorbance read-out; active compounds read low; some inactives read as strong as hits;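 active = replicate mean up to 90% and picked by the depositor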;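 also: 100% = median of the test wells of a plate; 100 nL library stock went into each well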
Starred values were filed as active, the others as inactive.

compound	VACV E9 pol inh
CCN(Cc1ccccc1)S(=O)(=O)c1ccc2[nH]c(=O)ccc2c1	99.3
CSc1nnc(NC(=O)C(C)C)s1	101.4
Nc1ncnc2c1ncn2C1CCCO1 (stereo unspecified)	99.5
COc1ccc(NC(=O)NC2c3ccccc3Oc3ccccc32)cc1OC	97.4
Cc1ccc(-c2ccc(CCC(=O)O)n2-c2ccccc2C(F)(F)F)cc1	100.5
CC(C)CCOc1ccc(/C=N/n2cnnc2)cc1	93.9
CC(C)Oc1ccc(CNC2CCOC(C)(C)C2)cc1 (stereo unspecified)	100.1
O=C(Nc1c2c(nn1-c1cccc(Cl)c1)CS(=O)C2)c1cccc(C(F)(F)F)c1 (stereo unspecified)	98.0
CN=C1c2c(C)c3cc(OC)ccc3n2CCN1C	49.5*
Cn1nc(SCC(=O)n2c3c(c4ccccc42)CCCC3)sc1=S	99.8
CCc1nnc(NC(=O)c2ccc(S(=O)(=O)N(C)c3ccccc3)cc2)o1	99.0
O=C(Cc1ccc(Br)cc1)Nc1nccs1	93.7
Cc1cccc(C(=O)Nc2nc3c(s2)C(=O)CC(C)(C)C3)c1	99.7
Cc1ccc(N2Cc3ccccc3C2=N)cc1Cl	98.1
COc1ccc2c(c1)OC(c1ccccc1)(C(F)(F)F)NC2=O (stereo unspecified)	96.8
CN(C)C(=O)c1cn(-c2ccccc2)c(=O)c2ccccc12	77.9
COc1cc(/C=[N+](/C)[O-])ccc1OCc1ccc(F)cc1	116.9
COc1ccccc1/C=C1\SC(=S)N(CCC(=O)Nc2nccs2)C1=O	86.3
O=C(CSc1nnc(Cc2ccccc2)o1)N1CCN(c2ccccc2)CC1	98.8
CNc1c(NC(=O)C2CC(=O)N(c3ccccc3)C2)c(=O)oc2ccccc12 (stereo unspecified)	105.6
COC(=O)CN(Cc1ccccc1)S(=O)(=O)c1ccc(C)cc1	100.0
S=C(Nc1ccc(Cl)cc1)N1CCSC1c1ccc(Br)cc1 (stereo unspecified)	100.3
COc1ccc(CN2CNc3nc4ccccc4n3C2)cc1	85.3
CCC(C)C(=O)Nc1nccs1 (stereo unspecified)	96.8
O=C(CSc1cnc2ccccc2n1)Nc1ccc(F)cc1	108.7
O=C(c1ccc(CNS(=O)(=O)c2ccc(Br)cc2)cc1)N1CCc2ccccc21	95.9
CCOc1ccc(NC(=O)c2ccc(N3C(=O)NC4CC3(C)Oc3ccccc34)cc2)cc1 (stereo unspecified)	101.2
O=C(Nc1ccc(F)cc1F)c1nc(-c2cccc(F)c2)n2c1CCCCC2	106.2
COCC(C)n1c(=O)c2ccccc2c2ccccc2c1=O (stereo unspecified)	82.2
O=C(Cc1c(O)c2ccccc2[nH]c1=O)NCc1ccccc1Cl	101.4
O=C(CCN1CCc2ccccc2C(O)(c2ccccc2)C1)c1ccc2c(c1)OCCO2 (stereo unspecified)	99.8
CC(=O)N1CCc2cc(NC(=S)NC3CCCCCC3)ccc21	99.1
COC(=O)c1ccc(COc2ccccc2OC)o1	99.7
CC1CCCCC1NC(=O)Cn1ncc2c(=O)oc3ccccc3c21 (stereo unspecified)	101.1
Cn1ccnc1Sc1cnc(SCc2ccc(Cl)cc2)nc1-c1ccccc1	100.9
O=C(CC1CCCCC1)c1c(O)c2ccccc2oc1=O	102.3
CCc1ccc(NC(=O)Cn2ncc3c2-c2ccccc2OC3)cc1	95.6
Cn1c(=O)oc2cc(S(=O)(=O)N3CCCC(C(=O)NN4CCOCC4)C3)ccc21 (stereo unspecified)	93.9
COc1ccc(CNCC2COc3ccccc3O2)cc1OC (stereo unspecified)	90.0
O=c1nc2c(-c3ccc(Cl)cc3)n[nH]n2c2ccccc12	102.2
CSc1cccc(-n2cc3ccsc3c2)c1	110.1
CC12CCC3C(CC=C4CC(O)CCC43C)C1C/C(=C\c1ccc(C(F)(F)F)cc1)C2=O (stereo unspecified)	93.9
CC1CN(c2nnc(-c3ccccc3)c3ccccc23)CC(C)O1 (stereo unspecified)	82.4
CCc1ccc(NC(=O)N2CCC(c3ccccc3)C2)cc1 (stereo unspecified)	94.1
CCCCCCCC(=O)OC[C@H](CO)OC(=O)CCCCCCC	101.0
CC1=C(C(=O)c2ccccc2)CC(C(=O)c2ccccc2)=C(C)N1	100.9
CCOC(=O)C1=C(c2ccccc2)OC(N)=C(C#N)C1c1ccccc1 (stereo unspecified)	77.5
CCOC(=O)CCn1nc(-c2ccccc2)cc1N	103.4
CCNc1nc(NCC)nc(OCCOC(C)=O)n1	100.1
N#Cc1ccc(-c2ccncc2)nc1SCC(N)=O	99.4
COc1ccc(-c2cc(-c3ccccc3)c(C#N)c(SC3CCCCC3O)n2)cc1 (stereo unspecified)	100.2
C=CCNC(=O)CCn1c(=S)[nH]c2cc3c(cc2c1=O)OCO3	101.2
CSc1nnc(-c2ccc(S(=O)(=O)n3nc(C)cc3C)s2)n1C	107.9
COc1cc(N)n(S(=O)(=O)c2ccc(C)cc2)n1	80.5
CC(C)(C)C1CCC(OC(=O)c2ccco2)CC1 (stereo unspecified)	102.1
COc1ccccc1/C=C(\C#N)c1ccc(C)cc1	90.1
O=C(CCCn1c(=O)c2sccc2n(Cc2ccc(F)cc2)c1=O)NCc1ccc2c(c1)OCO2	98.1
Cc1cc(NC(=O)c2ccc(C#N)cc2)n(-c2ccccn2)n1	97.2
O=C(NCc1ccccn1)c1nnc(-c2cccnc2)o1	101.2
Cc1[nH]c2ccccc2c1C(Nc1ccccn1)c1cccs1 (stereo unspecified)	99.2

The list continues:
compound	VACV E9 pol inh
Cc1cn2c(nc1=O)OC1CC2OC1CO (stereo unspecified)	97.1
O=C(COc1ccccc1)Nc1nonc1NC(=O)COc1ccccc1	100.0
O=C(COc1ccc2c(C(F)(F)F)cc(=O)oc2c1)N1CCc2ccccc21	100.0
O=C(Nc1cccnc1)C1CC(c2ccc(F)cc2)=NO1 (stereo unspecified)	93.6
Oc1ccc2ccccc2c1C=NCc1cn2ccsc2n1	81.8
CC(C)CN(CC(C)C)Cn1c(=O)oc2ccccc21	99.3
O=c1c2cnn(-c3ccc(Cl)cc3)c2ncn1Cc1ccc(Cl)cc1	100.2
CCC1CCC2(CC1)SCC(=O)N2c1ccccc1 (stereo unspecified)	100.2
O=C(C1CC1)N1c2ccccc2CCc2ccccc21	99.4
O=C1C2C(C(=O)N1C1CCCCC1)C1C=CC2C12CC2 (stereo unspecified)	99.9
COc1ccc(N2CCc3c(C)c(C#N)c4nc5ccccc5n4c32)cc1	103.8
CCc1ccccc1NC(=O)c1ccc(S(=O)(=O)N(C)C)cc1	99.4
CCOc1ccc(NC(=O)C2(c3ccccc3)CCOCC2)cc1	100.0
CC1=CCC(c2cnc(-c3ccccc3)c(C)c2)NC1c1ccccc1 (stereo unspecified)	97.4
Cc1[nH]n(C(N)=S)c(=O)c1C(c1cccc(Cl)c1Cl)C(C#N)C#N (stereo unspecified)	94.8
COC(=O)/C=C1\SC(N)=NC1=O	111.8
Cc1cc(C)c(S(=O)(=O)N2CCSC2)cc1C	68.3
Clc1ccc(-c2ccc(Cl)cc2)cc1	100.4
CC(C)(C)c1cc(C(=O)NCc2cccs2)cc(C(=O)NCc2cccs2)c1	93.7
CC1CCN(C(=O)C2C3C=CC(C3)C2C(=O)O)CC1 (stereo unspecified)	102.8
Cc1c(O)ccc(-c2[nH]ncc2-c2nc3ccccc3s2)c1O	95.7
O=C(CN1CCc2ccccc21)Nc1nnc(-c2cccs2)s1	96.3
CCC(C)NC(=O)CN1CCN(Cc2ccc(Cl)cc2)C1=O (stereo unspecified)	104.6
CCN(CC)P1(=O)OC(C)(C)CC1(C)O (stereo unspecified)	94.5
CC(NCc1nc2ccccc2n1C)C12CC3CC(CC(C3)C1)C2 (stereo unspecified)	106.6
CC1(C)N=C(NC(=O)NC(=O)c2ccccc2Cl)N(c2ccccc2)O1	104.6
CCCC1=Nc2cc(C(=O)NC)ccc2Sc2ccccc21	92.9
c1csc(-c2nnc3n2-c2ccccc2SC3)c1	82.2
O=C(Nc1nc2ccc(F)cc2s1)c1ccccc1Br	101.3
CCOC(=O)CSc1nc(SCC(=O)OCC)c2c3c(sc2n1)CCC3	100.4
c1ccc2c(c1)CCN2c1ncnc2nc[nH]c12	101.3
CCOC(=O)c1cc(-c2ccccc2)n(CC(=O)N2CCN(c3cc(Cl)ccc3C)CC2)c1C	95.9
CN(C)[C@@H]1C(=O)C(C(N)=O)=C(O)[C@@]2(O)C(=O)C3=C(O)c4c(O)ccc(Cl)c4[C@@](C)(O)[C@H]3C[C@@H]12	101.4
CC(NC(=O)Cc1ccccc1)C(=O)O (stereo unspecified)	102.8
Cc1ccc(SC(=O)c2ccc(C#Cc3ccccc3)o2)cc1	94.3
Clc1cc2c(c3ncccc13)OCN(CCC1=CCCCC1)C2	100.1
COc1cccc(OCC(=O)OC2CCS(=O)(=O)C2)c1 (stereo unspecified)	101.1
O=C(NCCC1=CCCCC1)c1ccc2c(c1)ncn2C1CCCC1	109.0
O=S(=O)(NC1CCCCC1N1CCCCC1)c1ccc(Cl)cc1 (stereo unspecified)	91.0
COc1ccc(NC(=O)c2oc3ccc(S(=O)(=O)N4CCC5(CC4)OCCO5)cc3c2C)cc1	100.8
CNC(=O)CSc1nc2ccccc2[nH]1	99.5
Cc1ccc(C)c(C(=O)COC(=O)c2cccc(C(=O)OCC(=O)c3cc(C)ccc3C)n2)c1	99.8
CN(C)c1ccc(/C=N/n2cnc3ccccc32)cc1	100.2
COc1ccc(S(=O)(=O)Nc2ccc3oc(=O)sc3c2)cc1	100.9
COc1ccc(-c2ccc(-c3ccccc3)o2)cc1	99.7
O=C(CSc1ccccc1)N1CCc2ccccc2C1	103.4
Cc1ccc(S(=O)(=O)NC(C)(C)CSc2ncccn2)cc1	100.9
CC(C)C(=O)Nc1nnc(SCC(=O)Nc2ccccc2)s1	101.9
S=C(Nc1ccccc1)N(Cc1ccccc1)Cc1ccccc1	99.8
COC(=O)c1ccc(NC(=O)CSc2nc(=O)cc(N)n2CCc2ccccc2)cc1	100.2
Cc1ccc2c(c1)c1c(c(=O)n(-c3ccccc3)c(=O)n1CC(=O)c1ccccc1)n2C	94.0
CC(NC(=O)c1ccccc1)C(O)c1ccccc1 (stereo unspecified)	98.5
COc1ccc(NCc2cc3ccccc3[nH]c2=O)cc1	100.0
O=C(Cn1ccsc1=NC(=O)c1ccco1)c1ccccc1	105.3
CCc1nc2n[nH]c(N)c2c2c1COC(C)(C)C2	100.5
COc1ccc(-c2nn(-c3ccccc3)cc2C=Nc2ccc(O)cc2)cc1	107.3
O=C(NCCn1ccc2ccccc21)c1cc2ccccc2oc1=O	98.2
CCCc1nnc2sc(NC(=O)CC)nn12	94.9
CC1CC(C(F)(F)F)n2nc(C(=O)O)cc2N1 (stereo unspecified)	104.9
Cc1ccc(C(=O)Oc2cccnc2I)cc1	118.9

(more compounds)
compound	VACV E9 pol inh
Cc1cc(SCC(=O)O)nc2ccccc12	102.7
CC(=O)N[C@@H](CC(C)C)C(=O)O	101.0
Cc1ccc(C(=O)N/C(=C/c2ccco2)C(=O)Nc2cccc(C)c2)cc1	95.5
O=C(CN1C(=O)/C(=C/c2cccc(Br)c2)SC1=S)NCCc1ccccc1	100.1
C=CCn1c(SCc2ccc(C(=O)O)cc2)nnc1-c1cccc(OC)c1	99.2
O=C(Nc1ccccc1)C(=S)Nc1ccccc1	98.9
CCOC(=O)N1CCN(c2ccc(C(F)(F)F)cn2)CC1	100.0
COc1cccc(CNCCc2ccccc2)c1OC	107.0
COc1ccc(Cl)cc1NC(=O)CN(c1ccccc1)S(=O)(=O)N(C)C	100.5
O=C(NCC1CCC(C(=O)Nc2ccc3c(c2)OCO3)CC1)c1ccc(=O)[nH]c1 (stereo unspecified)	97.7
O=C(Oc1ccc2sc(=O)oc2c1)c1cccs1	101.4
O=c1[nH]c(CSc2ccccn2)nc2c1oc1ccccc12	99.8

7 compounds drawn at random from those above:
compound	VACV E9 pol inh
C=CCn1c(SCc2ccc(C(=O)O)cc2)nnc1-c1cccc(OC)c1	99.2
CCOC(=O)N1CCN(c2ccc(C(F)(F)F)cn2)CC1	100.0
O=c1[nH]c(CSc2ccccn2)nc2c1oc1ccccc12	99.8
O=C(NCC1CCC(C(=O)Nc2ccc3c(c2)OCO3)CC1)c1ccc(=O)[nH]c1 (stereo unspecified)	97.7
CC(=O)N[C@@H](CC(C)C)C(=O)O	101.0
Cc1cc(SCC(=O)O)nc2ccccc12	102.7
O=C(Nc1ccccc1)C(=S)Nc1ccccc1	98.9

Further entries.
compound	VACV E9 pol inh
Cc1cccc(-c2nc3sc4c(c3c(=O)[nH]2)CCCC4)c1	99.9
O=C1CCCC2=C1C(c1ccccc1)CC(=O)N2c1ccc(F)cc1 (stereo unspecified)	100.4
Cc1ccc(N2CCN(/N=C\C=C\c3ccccc3)CC2)cc1	99.8
CCCCc1nnc(NC(=O)Nc2ccc(C)cc2)s1	100.2
O=S1(=O)N=C(N2CCNCC2)c2ccccc21	100.3
Cc1ccc(C(=O)NCCn2ccc3ccccc32)cc1	97.4
Cc1ccc(C)c(CN2C(=O)C(C(C)C(=O)NCc3ccc4c(c3)OCO4)Sc3ccccc32)c1 (stereo unspecified)	103.0

This is a subset; the hit share may differ from the screen's.
